CtBP-E1A inh: CtBP/E1A binding inhibition | activity change, % (concentration not given with the values) | AlphaScreen GST-E1A/His-CtBP binding, 1536-well; stronger effect = lower value; control for the full effect not named in the record | hit rate 0.49% among 340,000; in the data active means activity change below about -65%; inconclusive means about -30% to -65%; inactive means above about -30%; further: on the % scale 0 is the no-effect control and ±100 the full control effect
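Homogeneous bead-based format: GST-tagged E1A captured on glutathione donor beads, His-tagged CtBP on nickel acceptor beads; compounds precede bead addition by 2 h at 37 °C.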
Sfp inh: inhibitors of Bacillus subtilis Sfp phosphopantetheinyl transferase | Biochemical Sfp PPTase activity, qHTS | Potency, µM, for inactives: max response, negative = inhibition, actives largely listed as inhibitors | hit rate 3.5% among 310,000 | AID 1490; active means well fitted inhibition curve with a large enough effect; inconclusive means small, poorly fitted or top-dose-only effect, or another doubt; inactive means no such curve, though single readings can be large or run the other way;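 further: the enzyme is Sfp with the accession as filed and its product quenches rhodamine fluorescence; potency means the concentration at half of the fitted maximal effect; 0% = enzyme reaction without inhibitor and -100% = no enzyme wells; top concentration of the series not given in the record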
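Buffer: 50 mM Hepes-Na pH 7.6, 10 mM MgCl2, 0.01% Nonidet P-40, 0.01% BSA. Enzyme 15 nM, pre-exposed to compound 15 min; substrates then added and fluorescence change tracked over 30 min.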
gsp ag: agonists of gsp mutant (McCune-Albright syndrome) | gsp mutant cells, cAMP HTRF, 30 min; control for the full effect not named in the record | Potency, µM (highest dose often 76.9 µM), for inactives: top-dose activation (cAMP increase), hits mostly activators | hit rate 0.13% among 340,000 | AID 624287; active = well fitted activation curve with a large enough effect; inconclusive = small, poorly fitted or top-dose-only effect, or another doubt; inactive = no such curve, though single readings can be large or run the other way; cell line not stated here;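 further: phosphodiesterase inhibitor Ro 20-1724 added with compounds to block cAMP breakdown; potency means the concentration at half of the fitted maximal effect; nearly all actives have a fitted effect of over 60% in size; about a fifth of the inactives were tested at one dose only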
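Cells stably selected in G418 were plated at 2000/well, grown 16-24 hr, then given compounds in DMSO with the PDE inhibitor […] (300 uM solution added) for 30 min at 37C; cAMP was read by HTRF.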
gsp antagonist: antagonizes gsp, the McCune-Albright syndrome mutation. gsp-mutant cells, cAMP HTRF, 30 min; control for the full effect not named in the record. Potency, µM (doses to about 76.9 µM), inactives show top-dose activity change, negative = inhibition, most hits filed as inhibitors. hit rate 0.4% among 340,000. AID 624288; active = falling curve of any shape with a large fitted effect; inconclusive = falling curve, mostly with a smaller effect; inactive = flat or rising curve; cell line not stated here;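 further: intracellular cAMP measured with PDE inhibitor Ro 20-1724 present during compound exposure; potency means the concentration at half of the fitted maximal effect; on the % scale 0 is the no-effect control and ±100 the full control effect; nearly all actives have a fitted effect of over 65% in size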
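HTRF cAMP read-out (cAMP-d2 plus anti-cAMP antibody-K in lysis buffer, 30 min RT). Before lysis, cells are exposed to compounds with […] for 30 min at 37C in DPBS containing Ca/Mg, BSA and Tween 20.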
Menin MLL FP FL: inhibitors of human menin-MLL interaction, wild-type MLL peptide. Fluorescence polarization, fluorescein-MLL peptide displacement from menin. FP activity change, % at 61.4 µM. 290,000 tested, under 10 active. AID 1766; inconclusive = falling polarisation curve, or a change in total fluorescence; inactive = total fluorescence flat and polarisation flat or rising; no compound was filed as active; the % refers to the polarisation; negative = inhibition;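 further: % of control where 0% means no effect; inhibitors lower the polarisation; unlabelled MLL peptide was the positive control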
TRPV1 potentiator: human TRPV1 potentiation | Q8NER1 | TRPV1-expressing cells, Fluo-8 calcium influx, capsaicin EC20 potentiation; host cell line not named in the record; control for the full effect not named in the record | potentiation, % at 8.33 µM | hit rate 0.02% among 320,000; active means potentiation above 80%; inconclusive means 30% to 80%; inactive means below 30%; further: 0% is about no effect
Target sequence (Q8NER1 whole entry, looked up): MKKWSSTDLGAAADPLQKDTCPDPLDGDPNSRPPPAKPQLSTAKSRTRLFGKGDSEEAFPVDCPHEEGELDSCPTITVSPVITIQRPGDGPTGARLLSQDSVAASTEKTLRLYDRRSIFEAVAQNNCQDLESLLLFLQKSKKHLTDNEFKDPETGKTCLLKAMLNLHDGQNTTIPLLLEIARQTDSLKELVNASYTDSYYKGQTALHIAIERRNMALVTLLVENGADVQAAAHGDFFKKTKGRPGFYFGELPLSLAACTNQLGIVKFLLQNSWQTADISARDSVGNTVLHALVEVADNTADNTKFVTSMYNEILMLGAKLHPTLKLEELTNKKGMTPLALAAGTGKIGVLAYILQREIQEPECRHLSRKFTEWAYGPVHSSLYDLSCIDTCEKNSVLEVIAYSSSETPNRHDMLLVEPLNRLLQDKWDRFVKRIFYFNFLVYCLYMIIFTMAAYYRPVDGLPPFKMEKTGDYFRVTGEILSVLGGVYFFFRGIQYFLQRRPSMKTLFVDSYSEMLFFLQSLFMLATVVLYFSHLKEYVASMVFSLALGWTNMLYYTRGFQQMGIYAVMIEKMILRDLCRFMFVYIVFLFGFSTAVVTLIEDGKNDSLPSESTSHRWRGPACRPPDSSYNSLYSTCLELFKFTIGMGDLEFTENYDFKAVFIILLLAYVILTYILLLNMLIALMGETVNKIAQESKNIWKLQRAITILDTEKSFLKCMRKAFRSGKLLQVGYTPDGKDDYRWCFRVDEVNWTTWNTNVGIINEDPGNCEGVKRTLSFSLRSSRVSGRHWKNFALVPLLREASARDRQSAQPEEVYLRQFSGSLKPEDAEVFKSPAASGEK
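TRPV1-expressing cells were cultured overnight at 35.5C and loaded with Fluo-8 calcium dye for 40 to 90 min at room temperature. After a 10 s baseline, compound was added and calcium influx was read kinetically for 3 min (ex 480/em 520 nm).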
ClpP mod: qHTS Assay for Activators of ClpP | ATP-dependent Clp protease proteolytic subunit (Bacillus subtilis (strain 168)), P80244 | purified B. subtilis ClpP, FRET peptide cleavage, 20 min | Potency, µM (top dose mostly 57.5 µM), for the others: at the top dose activity change, negative = active | hit rate 1.9% among 340,000; active = well fitted falling curve with a large enough effect; inconclusive = small, poorly fitted or top-dose-only effect; inactive = no such curve, though single readings can be large or run the other way; further: potency means the concentration at half of the fitted maximal effect; the source files actives as falling curves though it sought activators and does not explain the sign; nearly all actives have a fitted effect of over 65% in size; many hits overshoot -100%
Target sequence (P80244 whole entry, looked up): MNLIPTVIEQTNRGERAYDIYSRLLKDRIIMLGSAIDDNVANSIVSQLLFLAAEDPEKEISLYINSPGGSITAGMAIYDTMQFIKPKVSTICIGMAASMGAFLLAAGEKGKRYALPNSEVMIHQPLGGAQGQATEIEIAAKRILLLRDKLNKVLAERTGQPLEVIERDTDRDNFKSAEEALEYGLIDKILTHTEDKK
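Purified B. subtilis ClpP, 10 microg/mL final in Tris/HCl pH8 with KCl, BSA, glycerol and Tween-20, cleaved an Abz/nitrotyrosine-quenched decapeptide. Fluorescence (ex 320, em 430) was read at 0 and 20 min at room temperature. Delta was normalized to 5.8 microM ADEP and DMSO/no-enzyme controls.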
An asterisk follows results filed as active; ? = inconclusive; · = no result given; & = joins results of further samples; ! = a repeat was not active; [ ] = another dose, or the depositor's remark. Rows are unselected; about 5.3% have a hit in one of these screens.

Results follow in this order: CtBP-E1A inh	Sfp inh	gsp ag	gsp antagonist	Menin MLL FP FL	TRPV1 potentiator	ClpP mod
> CN(Cc1ccccc1)C(=O)c1ccccc1NC(=O)C1CC1
→ 1	23%	-3%[15.4 µM]	12%	-3.8	0	·
> CC(=O)c1ccc(N2Cc3ccccc3/C2=N\C(=O)Nc2ccccc2)cc1
→ -2	1%	-2%	-9%	1.4	-7	-5.8%
> CC(=O)Oc1cccc(N2C(=O)c3ccc(C(=O)Nc4cccnc4)cc3C2=O)c1
→ ·	21%	-8%	-13%	1.8	2	-0.9%
> O=C(CSc1nnc(-c2ccc(S(=O)(=O)N3CCCC3)cc2)n1CC1CCCO1)NC1CC1 (stereo not given)
→ -1	-1%	7%[15.4 µM]	4%	3.1	?	-3.7%
> COc1ccc(C2CC(c3ccccc3)=NN2c2ccc(S(N)(=O)=O)cc2)cc1OC (stereo not given)
→ 21	89µM*	?	-11%	7.9	-1	·
> CC(C)(C)OC(=O)C[C@@H]1C/C=C\C[C@@H](CC(=O)N(CCO)Cc2ccccc2)C(=O)N[C@H](Cc2ccccc2)COC1=O
→ 2	·	·	-9%	·	·	1.1%
> Cc1c(C(=O)O)sc(S(=O)(=O)N2CCN(C(=O)CCc3ccccc3)CC2)c1C(=O)O
→ -4	·	18%	11%	·	9	-2.4%
> COC(=O)C1=C(O)/C(=C\c2ccc(OCC(=O)Nc3ccccc3)cc2)N=C1C
→ ·	7%	1%	-1%	·	0	-3.7%
> COc1cccc(N(CC(=O)NCCSc2ccccn2)S(C)(=O)=O)c1
→ 7	2%	12%	-2%	0.1	2	1.0%
> COc1ccc(NC(=O)Cn2cnc3c(oc4nc5c(cc43)COC(C)(C)C5)c2=O)cc1
→ -4	16%	-18%[15.4 µM]	-1%	3.2	·	-1.7%
> C[N+](C)(C)CCCCCC(=O)/C=N/O
→ ·	0%	-3%	1%	3.7	5	-0.1%
> CCOC(=O)N1CCN(CCCc2ccccc2)CC1
→ -4	-18%	-7%[15.4 µM]	-11%	-6.2	-7	-0.6%
> CCOC(=O)CC(N)c1ccc(OC)cc1 (stereo not given)
→ 5	8%	15%	-1%	1.7	0	1.1%
> O=C(CN1C(=O)c2ccccc2C1=O)OCCOCCN=C1NS(=O)(=O)c2ccccc21
→ ·	3%	-53%[inhibitor]	-5%	-0.7	6	-2.9%
> Cc1nn(-c2ccc(C(=O)NCC(c3ccco3)N3CCCC3)cc2)c(C)c1Cl (stereo not given)
→ 2	·	24%	10%	·	-5	-1.4%
> Cc1ccc(-n2c(C)cc(/C=N/NC(=O)CC3(C)OCCO3)c2C)c(C)c1
→ -5	0%	-32%[inhibitor]	13%	6.0	1	-13%
> O=C(CNC(=O)C1CCCCC1)NNC(=O)c1ccccc1Br
→ -25	9%	23%	0%	·	8	-7.3%
> COCCNC(=O)CSc1nc2c(n1-c1ccccc1)CCCC2
→ -10	-13%	-10%[15.4 µM]	-12%	-0.3	18	?
> COc1cc(CNc2ccc3c(c2)OCCO3)ccc1OCC(N)=O
→ -10	11%	35%	-14%	-9.2	7	·
> O=c1c2ccccc2c(-c2ccc(F)cc2)nn1-c1ccc(C(F)(F)F)cc1
→ 23	-14%	-52%[inhibitor]	-3%	0.8	-3	?
> CCC(C)Sc1cccc(-c2nc3cc(C)ccn3c2NC2CCCCC2)c1 (stereo not given)
→ -1&-3	·	23%	-11%	·	·	14µM*!
> CC(C)(C#N)Nn1cnnc1
→ 26	-1%	-5%	9%	-1.6	-6	1.9%
> Cc1ccc2[nH]c(C)c(CCNC(=O)c3cc4cc([N+](=O)[O-])ccc4oc3=O)c2c1
→ -15	-7%	3%	0%	0.1	22	0.6%
> Cn1nnnc1SCc1cc(=O)[nH]c2ccccc12
→ -4	18%	17%	7%	-0.2	26	-1.1%
> CN(Cc1ccccc1)C(=O)c1nc2ccccn2c1CN1CCCC1c1nccs1 (stereo not given)
→ 7	-29%	18%	-1%	-3.3	-3	-5.5%
> O=c1[nH]c2cc(Cl)c([N+](=O)[O-])nc2[nH]1
→ 0	7%	17%	16%	-1.7	4	2.6%
> O=C(Cc1ccc(-c2ccccc2)cc1)Nc1ccccn1
→ -1	2%	-17%[15.4 µM]	2%	0.6	7	·
> C[C@H](CO)N1C[C@H](C)[C@@H](CN(C)S(=O)(=O)c2cn(C)cn2)Oc2ccc(NC(=O)Cn3cnnn3)cc2C1=O
→ 8	·	-9%	6%	·	·	-2.0%
> CCOc1cccc(CNc2ccc(O)cc2)c1OCc1ccc(Cl)cc1Cl
→ -26	14µM*	4%	?	3.1	-17	-1.3%
> Cc1ccc(C(C(=O)NC(C)(C)C)N(C(=O)CCC(=O)Nc2ccccn2)c2ccccc2F)cc1 (stereo not given)
→ -14	1%	6%[15.4 µM]	-9%	-3.3	-22	·
> COC(=O)c1cc2c(ccn2-c2ccc(F)cc2)n1C(C)C
→ -21	-23%	-23%	-20%	1.7	0	?
> Cc1cccc(NCc2nc3ccccc3n2Cc2ccccc2)c1
→ -5	12%	-22%	-22%	3.0	4	-0.8%
> CC(=O)Nc1ccc(Sc2ncccc2C(=O)Nc2ccc(OC(F)(F)F)cc2)cn1
→ 12	-8%	-53%[inhibitor]	25%	3.3	9	0.6%
> COc1ccccc1N1CCN(Cc2cc3c(cc2[N+](=O)[O-])OCO3)CC1
→ -28	8%	-20%	?	0.6	3	-1.1%
> CC(=O)N1CCC(N(CCN2CCOCC2)C(=S)Nc2cccc(C)c2)CC1
→ 7	-6%	-34%[inhibitor]	-2%	2.2	11	16%
> CN(C)C(=O)c1cccc(COc2ccc(N3C(N)=NC(N)=NC3(C)C)cc2Cl)c1
→ -5	·	?	·	·	·	0.7%
> Cc1ccc(NC(=S)c2nc3ccccc3[nH]2)cc1
→ -72*	12%	?	-7%	3.1	-8	-0.5%
> CC(=O)Nc1ccc(S(=O)(=O)N[C@@H](C)C(=O)OCC(=O)NC2CCCC2)cc1
→ 2	·	-7%	6%	·	0	0.3%
> CCCN1C(=O)C(=O)c2cc(Cl)ccc21
→ 1	·	·	12%	·	·	-1.2%
> CC(C)(COC(=O)c1ccccc1)N1CC2CCC(C1)O2
→ 0	·	8%	4%	·	·	-1.2%
> COc1cccc(OCCn2cc(/C=N/NC(=O)c3ccncc3)c3ccccc32)c1
→ -9	-1%	-4%[15.4 µM]	-7%	·	?	-3.4%
> O=CN1CCN(C(C(=O)NC2CCCCC2)c2ccc(Cl)cc2)CC1 (stereo not given)
→ 5	·	-1%[15.4 µM]	-2%	·	·	·
> CC(C)Cn1c(N)c(C(=O)COC(=O)c2ccccc2Cl)c(=O)n(C)c1=O
→ ·	4%	-40%	-33%	5.6	15	1.1%
> Cc1cc(C)cc(N(C(=O)Cc2cccs2)C(C(=O)NC2CCCCC2)c2ccccn2)c1 (stereo not given)
→ 3	2%	-14%	-17%	0.1	-19	2.1%
> Cc1cc(C(=O)NN)n[nH]1
→ 10	6%	-1%	8%	-0.8	-2	·
> O=[N+]([O-])c1ccccc1/C=C/C=N/n1c(-c2ccccc2F)n[nH]c1=S
→ -24	28µM*	-8%[15.4 µM]	-22%	3.8	-3	-1.0%
> COc1ccc(CCC(=O)NCCOc2ccc(C)cc2)cc1
→ 19	-1%	-7%[15.4 µM]	9%	12	-33	2.4%
> O=C(COc1ccc2c3c(c(=O)oc2c1)CCC3)NCC(O)c1ccccc1 (stereo not given)
→ 2	17%	-29%	3%	-6.6	1	?
> COc1cccc(CN(C)CC(=O)Nc2cc3oc4ccccc4c3cc2OC)c1
→ 1	-16%	7%	-23%	1.7	-16	?
> CC12CC(NC(=O)N1c1cccc(C(=O)Nc3ncn[nH]3)c1)c1ccccc1O2 (stereo not given)
→ 1	-2%	10%	-1%	2.8	6	0.0%
> CCCN(C(=O)CCl)C1=CCCCC1
→ 3	16%	3%[15.4 µM]	-15%	0.3	1	-1.9%
> CC(NC(=O)c1ccccc1)c1nnc(SCC(=O)Nc2nnc(C3CC3)s2)n1C (stereo not given)
→ 1	·	-9%[15.4 µM]	1%	·	5	·

Of the compounds above, these contain fluorine:
Results follow in this order: CtBP-E1A inh	Sfp inh	gsp ag	gsp antagonist	Menin MLL FP FL	TRPV1 potentiator	ClpP mod
> O=c1c2ccccc2c(-c2ccc(F)cc2)nn1-c1ccc(C(F)(F)F)cc1
→ 23	-14%	-52%[inhibitor]	-3%	0.8	-3	?
> Cc1ccc(C(C(=O)NC(C)(C)C)N(C(=O)CCC(=O)Nc2ccccn2)c2ccccc2F)cc1 (stereo not given)
→ -14	1%	6%[15.4 µM]	-9%	-3.3	-22	·
> COC(=O)c1cc2c(ccn2-c2ccc(F)cc2)n1C(C)C
→ -21	-23%	-23%	-20%	1.7	0	?
> CC(=O)Nc1ccc(Sc2ncccc2C(=O)Nc2ccc(OC(F)(F)F)cc2)cn1
→ 12	-8%	-53%[inhibitor]	25%	3.3	9	0.6%
> O=[N+]([O-])c1ccccc1/C=C/C=N/n1c(-c2ccccc2F)n[nH]c1=S
→ -24	28µM*	-8%[15.4 µM]	-22%	3.8	-3	-1.0%

3 structures already listed, ordered by length of the SMILES, falling.
Results follow in this order: CtBP-E1A inh	Sfp inh	gsp ag	gsp antagonist	Menin MLL FP FL	TRPV1 potentiator	ClpP mod
> COc1cccc(OCCn2cc(/C=N/NC(=O)c3ccncc3)c3ccccc32)c1
→ -9	-1%	-4%[15.4 µM]	-7%	·	?	-3.4%
> COc1cccc(CN(C)CC(=O)Nc2cc3oc4ccccc4c3cc2OC)c1
→ 1	-16%	7%	-23%	1.7	-16	?
> Cc1cc(C(=O)NN)n[nH]1
→ 10	6%	-1%	8%	-0.8	-2	·

Assay outcomes: PubChem BioAssay, National Center for Advancing Translational Sciences (NCATS)
